Bioassay records from PubChem.
CBX7 inh = CBX7 inhibition, primary AlphaScreen. AlphaScreen His6-CBX7 / biotin-H3K27me3 peptide binding; stronger effect = lower value. normalised signal (fraction of DMSO) (concentration not given with the values). actives 1.1% (n = 66,000); in the data active = normalised signal below about 0.5;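 note: 100 nL library stock added to about 20 µL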
Target sequence (O95931 whole entry, looked up): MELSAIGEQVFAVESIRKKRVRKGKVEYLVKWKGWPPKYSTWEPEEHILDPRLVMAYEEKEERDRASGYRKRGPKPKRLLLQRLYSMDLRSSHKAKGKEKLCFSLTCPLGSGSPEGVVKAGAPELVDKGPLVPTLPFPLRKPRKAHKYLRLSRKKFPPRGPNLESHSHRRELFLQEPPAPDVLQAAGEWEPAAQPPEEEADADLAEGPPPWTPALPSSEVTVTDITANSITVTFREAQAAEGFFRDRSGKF
CBX7 inh z-score = recorded beside CBX7 inh, whose call it bears; z-score; measured here: z-score of CBX7 signal; some inactives read as strong as hits; reference of the scale not given here;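 same signal on another scale; lower means less binding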
The depositor's hits bear a star; & = joins results of further samples; ! = not confirmed by another sample. Some of the compounds tested; rates above refer to the full screens.

Each structure is followed by: CBX7 inh, CBX7 inh z-score
O=C(NCCCN1CCOCC1)c1cnn2c1NC(c1cccs1)CC2C(F)(F)F (stereo not drawn)
 : 1.14, 1.64
COCc1cc(=O)[nH]c(Nc2nc(C)c3cc(OC)ccc3n2)n1
 : 0.97, -0.474
COc1ccc(OC)c2[nH]c(=O)c(CCNC(=O)c3ccccc3F)cc12
 : 1.02, 0.923
CC(=O)c1ccc(NC(=O)CSc2nc3ccccc3[nH]2)cc1
 : 0.908, -0.605
O=C(O)CCc1ccc(-c2ccccc2)n1-c1ccc(Cl)cc1
 : 1.11, 3.33
CCCCNC(=O)c1ccc2c(c1)N(Cc1cccc(Cl)c1)C(=O)c1ccccc1S2
 : 0.918, -1.63
O=C(Nc1ccccc1F)C1CCN(S(=O)(=O)c2ccc(F)cc2)CC1
 : 1.02, 0.832
Cc1c(NC(=O)c2ccc(-c3cccc(Cl)c3)o2)cccc1-c1nc2ncccc2o1
 : 0.98, -0.376
COc1cc(OC)cc(C(=O)N(Cc2nc(-c3cccc(C)c3)no2)C(C)C)c1
 : 0.712, -2.86
O=C(Nc1ccc(-c2nc3ncccc3o2)cc1)c1cc(Br)ccc1Cl
 : 0.997, -0.0824
O=C(COCc1cc(-c2ccc(F)cc2)on1)N1CCOCC1
 : 1.07, 0.726
O=C(c1ccc2c(=O)n3c(nc2c1)CCCCC3)N1CCc2ccccc21
 : 0.915, -1.4
COCc1nnc(NC(=O)c2cc(Cl)ccc2OC)s1
 : 1.02, 0.395
COCCCNC(=O)C1CCN(c2nn3c(=O)cc(C)nc3s2)CC1
 : 1.09, 0.83
Cc1ccc(CCNC(=O)c2cc(-c3ccncc3)nc3ccccc23)cc1
 : 1.05, 1.78
CCN(CC)c1ccc(Nc2nc(-c3c(C)nc4ccccn34)cs2)cc1
 : 0.0757*, -18.3*
CC(C)CCN1CC(C(=O)NC2CCCCC2)CC1=O (stereo not drawn)
 : 1.02, 0.313
Cc1ccc(OCc2nc(C#N)c(N3CCN(Cc4ccccc4)CC3)o2)cc1
 : 0.459*, -9.83*
Cc1ccc2oc(-c3cccc(N4C(=O)c5cccnc5C4=O)c3)nc2c1
 : 0.66, -0.383
COc1ccc(Nc2cc(C(=O)NC(C)c3ccc4c(c3)OCCO4)c3ccccc3n2)c(OC)c1 (stereo not drawn)
 : 0.778, -0.933

Reprinted at random: 7 entries already listed.
Each structure is followed by: CBX7 inh, CBX7 inh z-score
Cc1ccc(OCc2nc(C#N)c(N3CCN(Cc4ccccc4)CC3)o2)cc1
 : 0.459*, -9.83*
CC(C)CCN1CC(C(=O)NC2CCCCC2)CC1=O (stereo not drawn)
 : 1.02, 0.313
COCc1nnc(NC(=O)c2cc(Cl)ccc2OC)s1
 : 1.02, 0.395
O=C(COCc1cc(-c2ccc(F)cc2)on1)N1CCOCC1
 : 1.07, 0.726
O=C(c1ccc2c(=O)n3c(nc2c1)CCCCC3)N1CCc2ccccc21
 : 0.915, -1.4
COc1ccc(Nc2cc(C(=O)NC(C)c3ccc4c(c3)OCCO4)c3ccccc3n2)c(OC)c1 (stereo not drawn)
 : 0.778, -0.933
Cc1ccc(CCNC(=O)c2cc(-c3ccncc3)nc3ccccc23)cc1
 : 1.05, 1.78

Carrying on:
Each structure is followed by: CBX7 inh, CBX7 inh z-score
CCn1c(=O)cc(OCC(=O)NCc2ccc(F)cc2Cl)c2ccccc21
 : 1.05, 0.874
O=C(CN1CCN(Cc2cccc(Cl)c2)C1=O)NCC1CCCO1 (stereo not drawn)
 : 0.872, -1.84
Cc1cccc(C)c1NC(=O)C1(NC(=O)c2cnccn2)CCCC1
 : 0.965, -1
COc1ccc(CCNC(=O)CCc2nc3sc4c(c3c(=O)[nH]2)CCCC4)cc1OC
 : 1.04, 0.177
CCOC(=O)N1CCN(c2ccc3nncn3n2)CC1
 : 0.986, -0.398
O=C(Cn1nc(Cc2ccncc2)c2ccccc2c1=O)N1CCCCC1
 : 0.985, -0.336
Cc1ccc(S(=O)(=O)c2nc(-c3ccc(Br)cc3)oc2N2CCOCC2)cc1
 : 0.771, -8.87
COc1ccc(Cc2nc(-c3nonc3N)no2)cc1
 : 0.985, -0.181
Nc1cccc(C(=O)CC2(O)C(=O)Nc3ccccc32)c1 (stereo not drawn)
 : 1.01, 0.171
COc1cc(Nc2nc(-c3ccc(C)cc3)cs2)c(OC)cc1Cl
 : 0.46*!, -5.96*!
O=c1[nH]c2ccccc2nc1Cc1ccccc1C(F)(F)F
 : 0.971, -0.707
CC1CCN(S(=O)(=O)c2ccc3c(c2)N(CC(=O)N2CCC4(CC2)OCCO4)C(=O)CO3)CC1
 : 1.01, 0.504
Cc1ccccc1Nc1c(-c2cccnc2)nc2ccc(Cl)cn12
 : 1.02, 0.588
CC1CCCC(C)N1CCCNC(=O)C1CCN(C(=O)c2cc3sccc3n2C)CC1 (stereo not drawn)
 : 1.19, 3.37
COc1ccccc1OCC(=O)Nc1ncc(Cc2ccc(Cl)cc2)s1
 : 1.02, 0.0264
Cc1ccc(-c2noc(CCC(=O)Nc3ccccn3)n2)cc1
 : 0.843, -0.214
COc1ccc(CNC(=O)CSCc2nc(-c3ccc(OC)cc3)oc2C)cc1
 : 0.962, -0.973
Cc1cccc(NC(=O)c2ccc(NC3=NC4CS(=O)(=O)CC4S3)cc2)c1 (stereo not drawn)
 : 1.01, 0.211
CCOCCCNc1ncc2c(n1)CC(c1cccs1)CC2=O (stereo not drawn)
 : 0.897, -1.17
COCCCNC(=O)c1cc(C)nn1-c1ccccc1
 : 1.17, 2.61
Cc1cccc(NC(=O)CC2Oc3ccccc3NC2=O)c1C (stereo not drawn)
 : 1, 0.0423
CC(=O)N1CCc2cc(S(=O)(=O)NCCC(=O)Nc3ccc(Cl)cc3)ccc21
 : 0.883, -2.17
Cc1c(C(=O)NCc2cccnc2)sc2ncn(CC(=O)N3CCCCC3C)c(=O)c12 (stereo not drawn)
 : 1.03, 0.907
Cc1nn(-c2ccccc2)c2sc(C(=O)N(C)c3ccccc3)cc12
 : 0.971, -0.316
CCCN1CCN(C(=O)C2CCN(S(=O)(=O)c3c(C)noc3/C=C/c3cccs3)CC2)CC1
 : 0.922, -3.44
Cc1ccc(C)c2[nH]c(=O)c(CCNC(=O)CCC3CCCC3)cc12
 : 0.967, -0.505
Cc1cccc(-c2nc(Nc3ccc(OC(F)(F)F)cc3)c3ccccc3n2)c1
 : 1.36, 10.9
Cc1ccc(C(=O)NCCc2cc3c(C)ccc(C)c3[nH]c2=O)cc1C
 : 1.05, 0.0895
COc1ccc(CNC(=O)Cn2ncc3c2-c2cc(C)ccc2OC3)cc1
 : 1.06, 1.54
Nc1ccc2nc(SCC(=O)NCCOc3ccccc3)sc2c1
 : 0.929, -1.12
COc1cccc(-c2nc(C(=O)NCc3ccc4c(c3)OCO4)c(C)o2)c1
 : 0.896, -1.95
COc1ccc(OC)c(Nc2nc(-c3ccccc3O)nc3ccccc23)c1
 : 0.923, -0.0908
COc1ccc2cc(CCNC(=O)Cc3cccc4ccccc34)c(=O)[nH]c2c1
 : 0.967, -1.1
CCN1C(=O)c2ccccc2S(=O)c2ccc(C(=O)NC(C)C)cc21 (stereo not drawn)
 : 0.966, -0.877
NC1=NC(=O)C2(COC(c3cccnc3)OC2)S1 (stereo not drawn)
 : 1.03, 0.289
C=CCc1cc(C)ccc1OCC(O)CN1CCN(c2ccc(C)cc2)CC1 (stereo not drawn)
 : 0.834, -5.46
COc1ccc(N2CCC(CNC(=O)Nc3ccc(C)c(C)c3)C2)cc1 (stereo not drawn)
 : 0.783, -5.39
O=C(Nc1nccs1)c1ccc2c(c1)C(=O)N(CC1CCCO1)C2=O (stereo not drawn)
 : 0.818, -0.718
O=C(NCCc1ccc(Cl)cc1)c1ccc2nc(N3CCOCC3)sc2c1
 : 1.03, 1.24
O=C(NCCc1ccccc1)c1c[nH]c2ccc(S(=O)(=O)N3CCOCC3)cc2c1=O
 : 0.963, -0.569

Additional records:
SMILES | CBX7 inh | CBX7 inh z-score
CC1CCN(C(=O)CSc2nnc(CNC(=O)c3c(F)cccc3Cl)o2)CC1 | 0.867 | -2.18
Cc1ccc(CNC(=O)CSc2nc3nc(C)c(Cc4cc(C)ccc4C)c(C)n3n2)cc1 | 1.19 | 1.81
O=C1CC(c2nc3ccccc3n2Cc2ccc(Cl)cc2)CN1c1ccccc1F (stereo not drawn) | 0.882 | -0.84
COc1ccccc1CNC(=O)c1ccc2c(c1)NC(=O)c1ccccc1S2(=O)=O | 1.1 | 4.09
Cc1cc(C)cc(NC(=O)c2cnn(-c3ccc(F)cc3)c2C2CCN(C(=O)OC(C)(C)C)CC2)c1 | 1.01 | 0.506
COC(=O)Cc1nc(N2CCCCCC2)c2c3c(sc2n1)CCCC3 | 0.982 | -0.524
Cc1ccc(-c2nc(CSCC(=O)NC(C)C)c(C)o2)cc1 | 0.99 | -0.179
O=C(NCCc1c[nH]c2ccccc12)c1cc2sccc2n1Cc1ccc(Cl)cc1 | 0.8 | -4.97
COc1ccc(N2CCN(CC(=O)Nc3nc(-c4ccccc4)cs3)CC2)cc1 | 0.6 | -4.74
O=C(c1nn2c(C(F)(F)F)cc(-c3ccc(F)cc3)nc2c1Cl)N1CCOCC1 | 1.06 | 2.38
O=C(NCCCN1CCCC1)c1ccc(NC2=NC3CS(=O)(=O)CC3S2)cc1 (stereo not drawn) | 1.03 | 0.482
CC(C)c1ccc(-n2cnc3cc(C(=O)NCc4ccccn4)ccc32)cc1 | 1.03 | 0.773
Cc1ccc(S(=O)(=O)NCc2c(-c3ccccc3)c3cc(Br)ccc3[nH]c2=O)cc1 | 0.959 | -1.68
O=C(NCCc1c[nH]c2ccccc12)c1ccc2c(c1)N(Cc1ccccc1)CCS2 | 0.658 | -0.453
CCC(=O)N1CCc2cc(S(=O)(=O)NCCC(=O)Nc3cc(C)ccc3OC)ccc21 | 1.02 | 0.0312
CCCCOc1ccc(C(=O)NCCc2cc3c(OC)ccc(OC)c3[nH]c2=O)cc1 | 0.981 | -0.836
CCOC(CNC(=O)c1ccc2c(c1)nc(C)n2-c1cc(Cl)ccc1OC)OCC | 1.01 | 0.432
COc1ccc(C2CC(=O)c3cnc(NC(=O)c4ccccc4)nc3C2)cc1OC (stereo not drawn) | 0.995 | -0.205
O=C(NCC(c1cccnc1)N1CCOCC1)Nc1ccccc1 (stereo not drawn) | 1.02 | 0.195
CN(C)c1ccc(CNC(=O)CN(C)S(=O)(=O)c2cccc3cccnc23)cc1 | 1.03 | 0.584
CCOC(=O)c1cnc2c(C)cc(C)cc2c1Nc1ccccc1C | 1.07 | 0.683
CN(C)C(C(=O)Nc1ccc2c(c1)OCO2)c1ccccc1 (stereo not drawn) | 0.983 | -0.391
Cc1ccc(N2CCN(C(=O)C3CCN(S(=O)(=O)c4cnc[nH]4)CC3)CC2C)cc1 (stereo not drawn) | 0.951 | -0.586
CC1CCN(C(=O)c2cc(-c3cccc(O)c3)on2)CC1 | 0.985 | -0.503
Cc1ccccc1OCc1nc(C#N)c(NCCc2ccccc2)o1 | 0.547 | -2.83
COc1ccc(N2CCN(C(c3cccs3)C(C)NC(=O)C(=O)N3CCCCC3)CC2)cc1 (stereo not drawn) | 0.935 | -2.14
CCCCCn1c(CCNC(=O)COc2ccccc2)nc2ccccc21 | 0.977 | -0.693
CCCCNC(=O)c1oc2ccc(S(=O)(=O)N3CCOCC3)cc2c1C | 1 | 0.0208
COc1ccc(-c2nn(-c3ccccc3)cc2C(=O)Nc2ccccc2OC)cc1 | 1.1 | 1.11
CCOc1ccc(C(=O)Nc2c(C(=O)c3ccc(OC)cc3)oc3ccccc23)cc1 | 1.09 | 0.411
COc1ccccc1-c1c(C)nn2c(NCCCN3CCCCCC3)cc(C)nc12 | 1.03 | 0.0637
CCCC(=O)N1CC(=O)Nc2ccc(Cl)cc2C1c1ccccc1 (stereo not drawn) | 1.06 | 0.558
Cn1c2ccccc2c2c(C(=O)NC3CCN(Cc4ccccc4)CC3)cn(C3CCCC3)c(=O)c21 | 1 | 0.0933
CCOc1ccc(NC(=O)C2CCCN(S(=O)(=O)c3cccs3)C2)cc1 (stereo not drawn) | 1.01 | 0.237
Cc1ccc(Cn2c(=O)n(CCCCCC(=O)NCc3ccccc3)c(=O)c3sccc32)cc1 | 1 | 0.101
O=C(NCCc1c[nH]c2ccccc12)C(=O)Nc1ccccc1 | 1.22 | 3.43
CCOC(=O)c1cc(-c2ccc(OC)cc2)n(CCC(=O)N2CCN(Cc3ccccc3)CC2)c1C | 0.79 | -3.78
CC1CCC(NC(=O)CN2CCN(Cc3ccc(Cl)cc3)C2=O)CC1 (stereo not drawn) | 0.966 | -0.61
Oc1ccc(Cl)cc1CNc1nc2ccccc2[nH]1 | 0.859 | -0.324
CC(C)/C=C1\CCCc2c1nc(C(C)C)c1c2CCCC1 | 1.02 | 0.567
O=C(NC1CCCc2ccccc21)C1(S(=O)(=O)c2ccc(Cl)cc2)CC1 (stereo not drawn) | 1.06&0.947 | 2.12&-0.925
CCN(CC)c1ccc(NC(=O)CCc2c(C)nc3cc(-c4cccc(F)c4)nn3c2C)c(C)c1 | 1.05 | 0.794
O=C(Nc1cccc(O)c1)c1nn2c(C(F)(F)F)cc(-c3ccccc3)nc2c1Cl | 1.06 | 0.391
Nc1nonc1-c1noc(COc2ccccc2Cl)n1 | 0.997 | -0.0284
COc1ccccc1Nc1cc(C(=O)NCCC(C)C)c2ccccc2n1 | 1.17 | 2.96
COc1ccccc1OCc1nc(C#N)c(NCc2ccc3c(c2)OCO3)o1 | 0.921 | -3.45
O=C(NC1CCCCC1)C1CC(=O)N(CCc2ccccc2)C1 (stereo not drawn) | 0.997 | -0.0835
COc1cccc(CNC(=O)Cn2nc(Cc3cccnc3)c3ccccc3c2=O)c1 | 0.99 | -0.0138
CCOC(=O)c1ccccc1NC(=O)c1cc2c(-c3ccc(OC)c(OC)c3)nn(C)c2s1 | 1.1 | 2.69
CCOc1ccc(-c2cn(-c3ccc(Br)cc3)c(=O)[nH]2)cc1Cl | 0.892 | -2.57

By substructure, those above containing a cyano group
SMILES | CBX7 inh | CBX7 inh z-score
Cc1ccc(OCc2nc(C#N)c(N3CCN(Cc4ccccc4)CC3)o2)cc1 | 0.459* | -9.83*
Cc1ccccc1OCc1nc(C#N)c(NCCc2ccccc2)o1 | 0.547 | -2.83
COc1ccccc1OCc1nc(C#N)c(NCc2ccc3c(c2)OCO3)o1 | 0.921 | -3.45
